Calb FLC – C. albicans growth modulation with fluconazole; C. albicans CaCi-2 (fluconazole-resistant clinical isolate) + fluconazole, Alamar Blue growth, 48 h; growth inhibition, % (concentration not given with the values); hit rate 0.57% among 300,000;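 active means most replicates above 75%; inconclusive means exactly half above 75%; inactive means most below 75%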;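 further: all wells also contain fluconazole at 8 µg/ml as a sub-toxic cotreatment; 0% = median of DMSO wells and 100% = median of geldanamycin control wells; wells of about 8 µL received 7.5 nL stock; the first replicate is given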
LANA-H2A inh – blocks KSHV LANA binding to histone H2A/H2B; Q9QR71; cell-free LANA-H2A/H2B peptide, fluorescence polarization; inhibition, % (no concentration beside the values); hit rate 0.6% among 320,000; AID 2629; in the data active means inhibition mostly above about 10%, no sharp cut-off; inactive means mostly below about 6.7%;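 further: stock transfer was 7.5 nL into about 10 µL; 0% = median of vehicle wells and 100% = median of positive control wells; one replicate is shown; the record names a cut of 25% in any replicate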
A1 inh – inhibitors of the anti-apoptotic protein A1, read as caspase activation; MEF A1-2A-BIM cells, Caspase-Glo 3/7 luminescence, 3 h; percent of clofoctol response, vehicle zero; caspase activation, % (no concentration beside the values); hit rate 0.066% among 330,000;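 active means over half of replicate activation scores above 10%, or exactly half above 10 with the replicate mean above 10; inconclusive means replicate mean below 10 yet half the replicates above 10; inactive means over half of replicates below 10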;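 further: wells of about 30 µL received 50 nL stock; many hits fall short of the cut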
Beta2AR agonist – agonists of human beta-2 adrenergic receptor inducing internalization. Am2.2-beta2AR cells, FAP receptor internalization, flow cytometry; reference of the scale not given here. response, % (concentration not given with the values). hit rate 0.43% among 340,000. AID 504454;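 active means response above a set limit, near 3 SD of response in nonfluorescent compounds, cut at about 42% in these data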;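 further: stock transfer was 100 nL into about 11 µL; a reference agonist was the positive control; negative values mostly stem from fluorescent compounds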
Target sequence (P07550 whole entry, looked up): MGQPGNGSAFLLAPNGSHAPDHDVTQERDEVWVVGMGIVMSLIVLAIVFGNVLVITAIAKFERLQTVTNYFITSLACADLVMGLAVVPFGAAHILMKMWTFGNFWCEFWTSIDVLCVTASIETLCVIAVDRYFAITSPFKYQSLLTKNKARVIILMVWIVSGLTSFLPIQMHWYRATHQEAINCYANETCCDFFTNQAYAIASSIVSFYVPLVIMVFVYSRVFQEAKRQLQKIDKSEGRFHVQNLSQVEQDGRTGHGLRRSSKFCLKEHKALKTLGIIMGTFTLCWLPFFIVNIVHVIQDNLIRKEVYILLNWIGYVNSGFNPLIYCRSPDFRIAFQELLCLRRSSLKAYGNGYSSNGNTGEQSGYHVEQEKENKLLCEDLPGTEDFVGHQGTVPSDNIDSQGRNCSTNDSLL
T cruzi repl – blocks replication of Trypanosoma cruzi | T. cruzi beta-gal in NIH3T3, luminescence, 90 h | inhibition, % (no concentration beside the values) | hit rate 1.4% among 300,000 | AID 1885;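 active means mean inhibition across valid replicates above about 55%, limit read from the data; inconclusive means mean below that limit but half or more replicates reach it; inactive means mean below it, under half of replicates reach it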;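 further: signal also drops with host cell toxicity which is not excluded here; 0% = plate median of DMSO wells and 100% = zero luminescence signal; higher percent means less beta-gal luminescence so fewer parasites; stock transfer was 50 nL into about 50 µL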
ALR inh – inhibitors of human sulfhydryl oxidase ALR | hit rate 3.8% among 290,000 | inhibition, % (test concentration not listed) | P55789 | purified ALR, DTT oxidation, H2O2 HRP-luminol luminescence;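 active means mean and each replicate at 75% or more; inconclusive means only one of the two met; inactive means neither met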;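 further: stock transfer was 7.5 nL into about 7.5 µL; 0% = neutral wells and 100% = wells with inactivated enzyme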
Target sequence (P55789 whole entry, looked up): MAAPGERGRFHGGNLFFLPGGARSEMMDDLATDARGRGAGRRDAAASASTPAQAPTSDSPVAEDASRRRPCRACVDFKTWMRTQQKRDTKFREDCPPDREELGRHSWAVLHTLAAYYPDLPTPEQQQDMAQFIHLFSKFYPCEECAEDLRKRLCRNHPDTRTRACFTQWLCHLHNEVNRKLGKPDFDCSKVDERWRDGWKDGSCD
rRNA inh HTS – selective bacterial rRNA inhibition in E. coli; E. coli WT GFP vs humanized-ribosome RFP mutants, fluorescence, 24 h; active compounds read low; DMSO median 0, no signal -100; GFP signal change (wild-type ribosome), % (concentration not given with the values); AID 720706; hit rate 1.6% among 350,000;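 active means significant combined selectivity score with lowered wild-type GFP, culture density cut under 30%, mutant RFP and density less affected; inactive means any of these conditions unmet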; further: one replicate is shown; some compounds called inactive have numbers as strong as hits
Beta apoptosis – beta cell apoptosis inhibition; AID 435005; INS-1E cytokine-induced death, ATP luminescence, 48 h; percent of positive-control rescue, neutral wells zero; hit rate 0.8% among 300,000; protection from apoptosis, % (concentration not given with the values);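 active means all replicates at 75% or more, or half of them and the mean; inconclusive means half reach 75% but not the mean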;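 further: 0% = cytokine-treated negative control wells and 100% = positive control rescue; higher means more ATP so stronger rescue from cytokine killing; wells of about 40 µL received 100 nL stock; the first replicate is given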
rRNA inh HTS OD600 – further read-out of rRNA inh HTS, marked with its call; OD600 change, %; measured here: OD600 growth;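 optical density of the mix in the first replicate; 0 = DMSO median and -100 = no signal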
rRNA inh HTS RFP – recorded beside rRNA inh HTS, whose call it bears; RFP signal change, %; measured here: RFP humanized mutant strains;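 first replicate; 0 = DMSO median and -100 = no signal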
* = called active by the depositor; ? = inconclusive; / = no result given. An excerpt. The share of hits here may be higher or lower than overall.

1. O=C(Nc1cccc(C(=O)N2CCCC2)c1)c1ccccc1Cl
2. CC1c2cc3c(cc2CCN1C(=O)c1ccc(C(F)(F)F)cc1)OCCCO3 (configuration not stated)
3. NS(=O)(=O)c1ccc(CCNC(=O)Cc2c[nH]c3ccccc23)cc1
4. Cc1cc(C)cc(NC(=O)C(OC(=O)c2ccc(O)cc2)c2ccccc2)c1 (configuration not stated)
5. COC(=O)c1ccc(CSc2nc3c(c(=O)n2-c2ccc(F)cc2)SCC3)o1
6. Cc1nc([N+](=O)[O-])c(Sc2nc3ccc([N+](=O)[O-])cc3[nH]2)n1Cc1ccccc1
7. COc1ccc(/C=C(/NC(=O)c2ccccc2)C(=O)N2CCCC2)cc1OC
8. O=C(CC1CCCC1)Nc1cc(S(=O)(=O)N2CCOCC2)ccc1O

assay / compound	1	2	3	4	5	6	7	8
Calb FLC	-7.7	3.3	13.7	/	2.4	2.5	-1.1	/
LANA-H2A inh	-3.2	1.3	-0.5	-4.5	-2.4	3.1	-6.4	8.0
A1 inh	-0.6	0.9	0.8	-0.9	0.1	0.3	0.1	-0.4
Beta2AR agonist	-3.4	-16.2	3.6	14.7	2.4	8.0	0.5	-7.2
T cruzi repl	-16.2	-2.7	17.8	/	21.4	-22.3	-3.8	/
ALR inh	1.5	-1.7	-8.9	0.8	-6.1	8.0	-7.3	4.6
rRNA inh HTS	/	2.5	3.2	-3.5	/	-5.7	1.5	8.3
rRNA inh HTS OD600	/	-26.8	27.4	-7.2	/	-4.8	4.8	0.5
rRNA inh HTS RFP	/	-3.7	4.2	5.0	/	12.4	-3.8	-0.7
Beta apoptosis	-0.7	-1.3	/	7.5	/	-4.4	1.2	2.9

Compound profiles (already shown):
`O=C(Nc1cccc(C(=O)N2CCCC2)c1)c1ccccc1Cl` is listed with Calb FLC = -7.7; LANA-H2A inh = -3.2; A1 inh = -0.6; Beta2AR agonist = -3.4; T cruzi repl = -16.2; ALR inh = 1.5; rRNA inh HTS = /; rRNA inh HTS OD600 = /; rRNA inh HTS RFP = /; Beta apoptosis = -0.7
`COc1ccc(/C=C(/NC(=O)c2ccccc2)C(=O)N2CCCC2)cc1OC` is listed with Calb FLC = -1.1; LANA-H2A inh = -6.4; A1 inh = 0.1; Beta2AR agonist = 0.5; T cruzi repl = -3.8; ALR inh = -7.3; rRNA inh HTS = 1.5; rRNA inh HTS OD600 = 4.8; rRNA inh HTS RFP = -3.8; Beta apoptosis = 1.2

Continuation.
9. Cc1cn2c(nc1=O)OC1C(O)C(COC(=O)c3ccccc3)OC12 (configuration not stated)
10. COc1cccc(CNc2nc3nc(C)c(Cl)c(=O)n3[nH]2)c1
11. NC(=O)c1ccccc1NS(=O)(=O)c1cccs1
12. Cc1cccc(-n2cnc3cc([N+](=O)[O-])ccc32)c1
13. COc1ccc2nc(N/C(N)=N/S(C)(=O)=O)nc(C)c2c1
14. Cc1cccc(/N=C/c2c(O)ccc3oc4c(c23)CCCC4)n1
15. Cc1cc(Br)ccc1OCC(=O)NNC(=O)c1ccc(NC(=O)C2CC2)cc1
16. COc1ccc(/C=C/C(=O)Oc2cccc(/C=N/NC(=O)Cc3ccc(Br)cc3)c2)cc1

assay / compound	9	10	11	12	13	14	15	16
Calb FLC	-7.7	-1.5	-4.7	?	-0.4	-1.2	-11.9	-3.4
LANA-H2A inh	3.7	-0.1	-13.6	-0.2	-2.1	-0.9	-0.4	-3.2
A1 inh	0.3	-1.1	0.8	0.7	0.7	0.2	0.9	-1.7
Beta2AR agonist	1.0	2.3	-8.3	-1.6	-1.0	-14.5	-21.8	3.7
T cruzi repl	22.0	9.1	-0.1	-16.0	3.9	-34.2	9.1	5.2
ALR inh	-1.7	/	-4.5	-13.4	/	0.3	-2.3	2.0
rRNA inh HTS	/	5.5	/	-16.1*	9.8	/	14.4	-0.4
rRNA inh HTS OD600	/	2.8	/	6.0*	7.8	/	2.6	-6.3
rRNA inh HTS RFP	/	-4.1	/	-3.4*	4.9	/	0.5	-3.9
Beta apoptosis	0.4	-2.6	-3.4	-3.3	-2.1	-12.3	0.0	22.7

17. COC(C(=O)N/N=C(\C)c1ccc(C)cc1)c1ccccc1 (configuration not stated)
18. COCCCN1C(=O)N(c2ccccc2)C(=O)C1CC(=O)Nc1ccccc1 (configuration not stated)
19. CC1CCCCN1CCNC(=O)c1ccc2c(=O)n(Cc3ccc(Cl)cc3)c(=S)[nH]c2c1 (configuration not stated)
20. COc1cccc(/C=N/Nc2nnc(C)n2N)c1OCc1ccccc1Cl
21. NCC(=O)NCC(=O)OCc1ccccc1
22. C=CCn1c(CC(=O)OC)csc1=Nc1ccc(C(C)=O)cc1
23. COc1ccc(N(CC(=O)Nc2cccc(SC)c2)S(C)(=O)=O)cc1Cl
24. CSc1nc(C)c2c(n1)N(c1cccc(C)c1)CC2

assay / compound	17	18	19	20	21	22	23	24
Calb FLC	15.0	3.1	28.5	17.2	-3.2	1.3	0.5	4.5
LANA-H2A inh	-1.1	5.0	-1.1	-3.6	-4.4	1.2	-4.3	0.0
A1 inh	0.5	0.7	-1.3	-0.3	2.0	1.4	-0.6	0.5
Beta2AR agonist	4.0	-6.2	14.7	-9.2	3.2	6.7	4.3	2.0
T cruzi repl	5.1	-3.3	23.7	-14.3	-4.0	-14.1	-9.9	20.2
ALR inh	-12.0	-0.3	4.5	-11.3	-0.5	0.9	-23.5	-8.7
rRNA inh HTS	1.3	20.9	-58.8	/	12.9	-4.8	/	/
rRNA inh HTS OD600	9.2	13.4	-79.6	/	5.9	-16.0	/	/
rRNA inh HTS RFP	-1.3	1.1	-15.4	/	0.1	-3.4	/	/
Beta apoptosis	-2.9	/	4.9	-17.4	2.8	4.5	-4.7	-1.9

A second format for some results above:
Value order: Calb FLC, LANA-H2A inh, A1 inh, Beta2AR agonist, T cruzi repl, ALR inh, rRNA inh HTS, rRNA inh HTS OD600, rRNA inh HTS RFP, Beta apoptosis
19) CC1CCCCN1CCNC(=O)c1ccc2c(=O)n(Cc3ccc(Cl)cc3)c(=S)[nH]c2c1 (configuration not stated)
    28.5, -1.1, -1.3, 14.7, 23.7, 4.5, -58.8, -79.6, -15.4, 4.9
20) COc1cccc(/C=N/Nc2nnc(C)n2N)c1OCc1ccccc1Cl
    17.2, -3.6, -0.3, -9.2, -14.3, -11.3, /, /, /, -17.4
22) C=CCn1c(CC(=O)OC)csc1=Nc1ccc(C(C)=O)cc1
    1.3, 1.2, 1.4, 6.7, -14.1, 0.9, -4.8, -16.0, -3.4, 4.5

Later entries
25. COc1ccc(-n2c(C)cc(-c3cn4cccc(C)c4n3)c2C)cc1
26. C#CCSc1nccc(-c2nn(-c3ccc(C)cc3)ccc2=O)n1
27. COC(=O)c1sc(S(=O)(=O)NC(Cc2ccccc2)C(=O)O)c(C(=O)OC)c1C (configuration not stated)
28. CCCCNC(=O)C1CC(c2c(Cl)cccc2Cl)=NO1 (configuration not stated)
29. COc1ccccc1CN(C)C(=O)C(NC(=O)Cc1cccc2ccccc12)C(C)C (configuration not stated)
30. COCCCN1C(=O)C(=O)/C(=C(/O)c2ccc(OC(C)C)cc2)C1c1cccnc1 (configuration not stated)
31. CC(=O)Nc1ccc(-c2csc(NC(=O)CCNC(=O)c3ccco3)n2)cc1
32. Cc1ccc(NC(=O)Cn2nc(C(F)(F)F)c3c2CCC3)cc1

assay / compound	25	26	27	28	29	30	31	32
Calb FLC	-22.4	7.0	/	-8.3	-3.7	3.1	/	7.0
LANA-H2A inh	0.0	0.5	-3.6	4.5	0.6	9.7	1.7	-0.8
A1 inh	-0.2	-0.7	-0.7	1.2	0.2	0.5	-0.4	1.6
Beta2AR agonist	16.9	0.2	-8.1	5.4	0.6	12.7	7.5	0.2
T cruzi repl	37.6	-6.4	/	-6.1	6.0	-8.2	/	8.7
ALR inh	0.5	-16.9	-0.6	2.1	4.0	-3.0	-1.4	23.2
rRNA inh HTS	9.5	/	4.6	7.9	-4.7	/	-13.2	-3.3
rRNA inh HTS OD600	6.3	/	8.9	-7.9	-15.7	/	-46.8	2.0
rRNA inh HTS RFP	3.0	/	-2.8	7.1	4.2	/	-10.3	-6.8
Beta apoptosis	0.6	10.1	-0.2	/	2.3	0.2	7.4	0.7

33. O=[N+]([O-])c1ccc(Cl)cc1N1CCCCC1
34. Cn1c(CNc2cccc(C(F)(F)F)c2)n[nH]c1=S
35. C=CCOc1ccc(Cl)cc1C(=O)O
36. O=C(CCC(=O)NNC(=O)c1ccc([N+](=O)[O-])cc1)NCc1ccccc1
37. S=C(NCCc1ccncc1)Nc1ccccc1
38. COc1cc(/C=N/N2CCN(c3ccc(Cl)cc3)CC2)cc(OC)c1OC(C)=O
39. O=C(NC(=S)NCCN1CCOCC1)c1ccccc1Br
40. c1ccc(-c2cccs2)nc1

assay / compound	33	34	35	36	37	38	39	40
Calb FLC	5.6	15.9	-18.4	-14.4	10.8	-1.4	-4.2	-1.7
LANA-H2A inh	-5.4	-0.3	4.9	4.8	7.6	-3.4	1.0	-0.5
A1 inh	0.1	0.4	0.3	0.4	1.6	0.4	-0.4	1.7
Beta2AR agonist	9.8	1.6	18.9	-37.8	1.1	6.2	2.5	7.6
T cruzi repl	-17.6	2.7	1.7	-3.1	-7.2	1.8	-8.0	-3.2
ALR inh	-5.9	5.2	-3.7	-6.1	-4.6	46.6	6.2	-2.2
rRNA inh HTS	21.1	6.5	/	1.5	8.8	3.3	22.4	13.1
rRNA inh HTS OD600	18.9	14.4	/	0.7	3.0	1.9	8.1	3.6
rRNA inh HTS RFP	-0.8	0.2	/	0.8	-1.1	1.4	-1.6	-0.9
Beta apoptosis	1.8	-3.2	/	2.1	-4.0	-5.4	-8.9	/

41. O=S(=O)(NCC1CCN(S(=O)(=O)c2ccccc2)CC1)c1ccccc1
42. CO/N=C/C(=N\Nc1ccc(C)cc1)C(=O)c1ccc(OC)cc1
43. CCCc1[nH]nc2c1C(c1ccc(Br)s1)C(C#N)=C(N)O2 (configuration not stated)
44. Cc1ccc2cccc(NC(=S)NC(=O)c3ccccc3)c2n1
45. O=C(CSc1nnnn1-c1ccccc1)NCc1ccco1
46. O=C(CCc1ccccc1)NC1CCCc2ccccc21 (configuration not stated)
47. COc1ccccc1OCC(=O)NCCNC(=O)COc1ccccc1OC

assay / compound	41	42	43	44	45	46	47
Calb FLC	-5.2	-9.4	-2.8	33.5	34.2	-5.7	-5.7
LANA-H2A inh	2.7	0.2	7.3	1.4	4.0	2.5	0.7
A1 inh	-0.4	-0.2	0.0	1.6	0.1	-0.4	0.7
Beta2AR agonist	4.4	1.7	10.2	8.4	0.9	18.4	1.1
T cruzi repl	-2.6	35.0	-3.8	-1.0	-4.6	7.3	-3.2
ALR inh	/	-0.3	28.6	-4.3	1.5	-1.8	/
rRNA inh HTS	/	/	/	/	/	-5.4	7.5
rRNA inh HTS OD600	/	/	/	/	/	-10.5	7.1
rRNA inh HTS RFP	/	/	/	/	/	-1.0	0.6
Beta apoptosis	-6.8	19.6	-12.2	4.2	-2.5	0.0	-9.3
